motility – Vibrio cholerae motility inhibitors, OD read-out (AID 588778) | 10,000 tested, under 10 active | one-dose inhibition, %; IC50 in µg/mL for titrated hits | Vibrio cholerae motility, OD read-out; higher % means a stronger effect; test concentration not given here; primary cut-off and reference of the scale not given here; strong numbers were not always called active; in the data active = confirmed in a dose series
motility viability – second read-out of motility, no call of its own (marks repeat the call); inhibition, %; measured here: bacterial viability at 10 ug/mL;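 higher means fewer living bacteria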
Starred values were filed as active, the others as inactive. These rows are one share of the data; count on the stated rates, not on these rows.

smiles	motility	motility viability
CCOC(=O)N1CCN(C(=O)CC2c3ccccc3Oc3ccccc32)CC1	9%	1
Cn1cccc1CN1CCN(Cc2ccco2)CC1	-6%	33
Cc1nc(CN2CCN(C(=O)c3ccc(Br)cc3)CC2)cs1	1%	0
CCn1c(COc2ccc3ccccc3c2C)nnc1SCc1nc2ccccc2c(=O)[nH]1	8%	0
N#CC(C(=O)NCc1ccco1)c1ccccc1 (centres undefined)	-1%	-5
COc1ccc(C2CC(=O)C=C(Nc3ccc(Br)cc3)C2)cc1 (centres undefined)	0%	-3
Cc1ccc2cccc(OS(=O)(=O)c3ccccc3)c2n1	12%	-2
O=C(Nc1ccc2oc(=O)ccc2c1)c1sc2ccccc2c1Cl	18%	6
Cn1c(NCc2ccco2)nc2ccccc21	5%	-2
CC(=O)c1cccc(NC(=S)NNC(=S)Nc2ccc(F)cc2F)c1	25%	9
O=C(C(=S)N1CCCCC1)c1c[nH]c2ccccc12	16%	28
CC(NC(=O)Nc1ccccc1C(F)(F)F)C1CCCO1 (centres undefined)	-2%	1
c1cc2c(cc1CNCCCN1CCOCC1)OCO2	-5%	-3
CS(=O)(=O)N1CCN(C(=O)c2csc3ccccc23)CC1	14%	26
CCOC(=O)C1=C(c2ccc(-c3ccccc3)cc2)C(=O)c2ccccc2C1=O	-24%	-13
C=C(C)COc1ccc(C#N)cc1OC	25%	-1
CC(=O)c1cccc(NC(=O)NNC(=O)CSCc2ccc(Cl)cc2Cl)c1	-2%	-4
COc1ccc(-n2c(SCCCN3C(=O)c4ccccc4C3=O)nnc2-c2ccncc2)cc1	-5%	-2
OC(COCc1ccc(Cl)cc1)CN1CCN(c2cccc(Cl)c2)CC1 (centres undefined)	37%	12
O=C(Nc1ncc(Cc2ccccc2)s1)c1ccc2c(c1)OCCCO2	-5%	-10
CSc1ccc(Cl)c(C(=O)Nc2ccc(Cc3ccccn3)cc2)c1	16%	6
O=C(Nc1cccc(-c2cn3ccccc3n2)c1)c1cccs1	28%	12
CC(C)n1c(NCc2nc3ccccc3n2C)nc2ccccc21	5%	-2
Cc1nn(Cc2cccc(C(=O)NCc3ccc4c(c3)OCO4)c2)c(C)c1Cl	15%	1
CC(NC(=O)Cc1c(F)cccc1Cl)C1CCCO1 (centres undefined)	2%	-2
Cc1csc2nc3ccccc3c(=O)n12	19%	6
O=[N+]([O-])c1ccc(CSc2ncc(-c3ccccc3)nn2)cc1	-6%	4
O=C(O)Cc1coc2ccc3ccccc3c12	-14%	-5
O=C(CC1(c2ccc(Cl)cc2)C(=O)c2ccccc2C1=O)N1CCCCC1	16%	-1
C=CCNCCOCCOc1cccc(Br)c1	6%	-1

Filtered by structure: those above with four or more nitrogen atoms
smiles	motility	motility viability
CCn1c(COc2ccc3ccccc3c2C)nnc1SCc1nc2ccccc2c(=O)[nH]1	8%	0
CC(=O)c1cccc(NC(=S)NNC(=S)Nc2ccc(F)cc2F)c1	25%	9
COc1ccc(-n2c(SCCCN3C(=O)c4ccccc4C3=O)nnc2-c2ccncc2)cc1	-5%	-2
CC(C)n1c(NCc2nc3ccccc3n2C)nc2ccccc21	5%	-2
O=[N+]([O-])c1ccc(CSc2ncc(-c3ccccc3)nn2)cc1	-6%	4

6 compounds drawn at random from those above, as already listed:
smiles	motility	motility viability
O=C(C(=S)N1CCCCC1)c1c[nH]c2ccccc12	16%	28
C=CCNCCOCCOc1cccc(Br)c1	6%	-1
O=[N+]([O-])c1ccc(CSc2ncc(-c3ccccc3)nn2)cc1	-6%	4
O=C(CC1(c2ccc(Cl)cc2)C(=O)c2ccccc2C1=O)N1CCCCC1	16%	-1
CC(=O)c1cccc(NC(=O)NNC(=O)CSCc2ccc(Cl)cc2Cl)c1	-2%	-4
Cn1cccc1CN1CCN(Cc2ccco2)CC1	-6%	33

Profiles as entered above. Order of values: motility | motility viability
CSc1ccc(Cl)c(C(=O)Nc2ccc(Cc3ccccn3)cc2)c1 as listed: 16% | 6
OC(COCc1ccc(Cl)cc1)CN1CCN(c2cccc(Cl)c2)CC1 (centres undefined) as listed: 37% | 12
O=C(C(=S)N1CCCCC1)c1c[nH]c2ccccc12 as listed: 16% | 28
CC(NC(=O)Cc1c(F)cccc1Cl)C1CCCO1 (centres undefined) as listed: 2% | -2

The list goes on.
smiles	motility	motility viability
CCOC(=O)CSc1nc(C)c(CC)c(C)c1C(N)=O	6%	4
COc1ccc([N+](=O)[O-])cc1NS(=O)(=O)c1ccc(OC)c(OC)c1	9%	20
O=C(OC1CCCCC1)c1nsc(Cl)c1Cl	14%	-5
CC(=O)OC(C(=O)Nc1nccs1)c1ccccc1 (centres undefined)	6%	7
COc1ccc(C(=S)NCC2CCCO2)cc1 (centres undefined)	1%	-4
FC(F)(F)c1cccc(-c2noc(-c3ccc(Cl)cc3)n2)c1	18%	9
CCOc1ccc(S(=O)(=O)N2C(C)CCCC2C)c2ccccc12 (centres undefined)	-3%	-7
Cc1cc(C(=O)NCc2cccs2)c(C)o1	5%	3
COc1ccc(NC(=O)CSc2nnc(C)c(=O)[nH]2)cc1Cl	27%	7
CCC(C)c1ccc(NC(=S)Nc2ccc3c(c2)OCCO3)cc1 (centres undefined)	8%	3
O=C(CSc1ccccn1)NCc1ccc2c(c1)OCO2	0%	2
O=C(Nc1nn(Cc2ccccc2F)cc1Br)c1cccs1	4%	-1
CC1(C)CC(NC(=O)c2ccccc2-c2ccccc2)CC(C)(C)N1	-3%	3
N/C(=N\OC(=O)COc1ccc(Cl)cc1Br)c1ccccc1Cl	2%	0
COC(=O)C(CC(=O)c1ccc(Cl)cc1)c1cc(=O)oc2cc(OC)ccc12 (centres undefined)	-8%	-1
c1ccc(CCN(Cc2ccccc2)C2CCN(Cc3c[nH]c4ccccc34)CC2)cc1	98%	100
CCCC(=O)Nc1ccc(-c2ccc(NC(=O)CCC)cc2)cc1	1%	1
CCc1c(C(=O)NCCN(C)C)csc1C	10%	3
CCC(C)c1ccc(NC(=S)Nc2cccc(Cn3cccn3)c2)cc1 (centres undefined)	77%	24
O=C(CN1C(=O)c2ccccc2C1=O)OCc1ccc(Br)cc1	-4%	-11
Cc1cc(C)n(-c2ccc3cccc(Nc4cc(C#N)c(C#N)cc4[N+](=O)[O-])c3n2)n1	-4%	-7
CC1=NN(c2nc(-c3ccc(Cl)cc3)cs2)C(=O)C1C (centres undefined)	-4%	2
COC(=O)Cc1cnc(NC(=O)C2C3CCC(C3)C2C(=O)O)s1 (centres undefined)	4%	-3
COc1c(C)cccc1C(=O)NC(=S)Nc1ccc(Cl)cn1	7%	-2
O=C(Oc1ccccc1OC(=O)N1CCCCC1)N1CCCCC1	-3%	2
Cc1ccc(S(N)(=O)=O)cc1NC(=O)c1ccc2c3c(cccc13)CC2	18%	4
O=S(=O)(Nc1nc2ccccc2nc1Nc1ccccc1F)c1ccccc1	-28%	-11
CC(C)COc1ccc(CC(=O)NCc2ccccc2)cc1Cl	10%	6
CCOc1cc(C2CC(=O)Nc3cc4c(cc32)OCO4)ccc1OC(=O)C1CCCCC1 (centres undefined)	16%	6
O=C(c1ccccc1)N1N=C(c2ccccc2)CC1c1ccc2nccnc2c1 (centres undefined)	-13%	-2
O=C(c1cccc(C(F)(F)F)c1)N1CCOCC1	18%	8
FC(F)(F)c1cccc(OCCSc2ncccn2)c1	18%	26
O=S(=O)(Nc1ccc(Cl)c(C(F)(F)F)c1)c1cccc2cccnc12	-22%	-5

Quoted from the listing.
c1ccc(CCN(Cc2ccccc2)C2CCN(Cc3c[nH]c4ccccc34)CC2)cc1 – motility viability: 100
CC1(C)CC(NC(=O)c2ccccc2-c2ccccc2)CC(C)(C)N1 – motility: -3%
COC(=O)Cc1cnc(NC(=O)C2C3CCC(C3)C2C(=O)O)s1 (centres undefined) – motility: 4%
O=C(Oc1ccccc1OC(=O)N1CCCCC1)N1CCCCC1 – motility viability: 2
